Mtb H37Rv – M. tuberculosis H37Rv growth inhibitors, H37Rv strain (AID 1626). 220,000 compounds, 0.95% hits. M. tuberculosis H37Rv growth inhibition; higher % means a stronger effect. inhibition, % at 10 µM; hits with a dose series show IC50 in µM;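 active = confirmed in a dose series; inconclusive = inhibition above 80% but not taken into the dose series; inactive = below 80% or under 30% at every dose of the series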;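 note: bacteria incubated seven days before Alamar blue readout; 0% = bacteria only wells and 100% = bacteria with antibiotic wells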
RecA intein inh – Mtb RecA intein splicing inhibition. P9WHJ3. 290,000 compounds, 0.75% hits. AID 2221. inhibition, %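 (about 9 µM by stock and volumes)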. cell-free RecA intein splicing, fluorescence; in the data active = inhibition above about 30%; inconclusive = no clear call, values can overlap the other calls;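 note: 0% = vehicle wells and 100% = reference inhibitor control wells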
Target sequence (P9WHJ3 whole entry, looked up): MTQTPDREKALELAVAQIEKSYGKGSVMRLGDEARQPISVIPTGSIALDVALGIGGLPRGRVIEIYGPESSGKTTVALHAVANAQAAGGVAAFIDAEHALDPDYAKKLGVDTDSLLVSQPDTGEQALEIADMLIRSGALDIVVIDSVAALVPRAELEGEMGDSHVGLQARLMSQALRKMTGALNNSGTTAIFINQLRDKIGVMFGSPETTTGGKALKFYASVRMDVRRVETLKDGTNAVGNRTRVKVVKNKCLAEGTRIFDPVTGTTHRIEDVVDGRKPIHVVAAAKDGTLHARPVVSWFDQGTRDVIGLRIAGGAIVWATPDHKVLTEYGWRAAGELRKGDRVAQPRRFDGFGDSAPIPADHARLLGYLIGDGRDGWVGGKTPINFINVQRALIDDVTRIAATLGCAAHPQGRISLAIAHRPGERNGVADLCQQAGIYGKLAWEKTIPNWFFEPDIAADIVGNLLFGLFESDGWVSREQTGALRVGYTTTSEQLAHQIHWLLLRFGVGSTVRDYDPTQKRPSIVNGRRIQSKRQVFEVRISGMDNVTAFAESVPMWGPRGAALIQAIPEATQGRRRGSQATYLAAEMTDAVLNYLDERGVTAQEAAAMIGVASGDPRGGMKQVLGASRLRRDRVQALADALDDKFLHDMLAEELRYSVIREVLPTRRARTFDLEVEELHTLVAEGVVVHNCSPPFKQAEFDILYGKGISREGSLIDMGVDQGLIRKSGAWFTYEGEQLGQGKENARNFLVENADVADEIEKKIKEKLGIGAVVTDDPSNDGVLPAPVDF
Arbovirus anti – antivirals against arbovirus infection; 200,000 compounds, 0.37% hits; inhibition, % at 10 µM; arbovirus infection cell-based antiviral screen;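 active = inhibition from about 30%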;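 note: bluetongue infection of BSR cells; cell survival read as ATP light after 72 h; 0% = infected wells without compound and 100% = uninfected wells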
Mtb bLac sens – beta-lactam sensitization of Mtb H37Rv | M. tuberculosis H37Rv growth with meropenem, percent inhibition; hits of this screen are not shown here | inhibition, % at 25 µM | 330,000 compounds, 0.27% hits;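 active = about 74% or more and at least 40 points above the plate without the antibiotic, then above 30% in a dose series; inconclusive = first-round hits that could not be retested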;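 note: growth measured after seven days incubation then overnight dye step; 0% = bacteria only wells and 100% = bacteria with antibiotic; twin plates without the antibiotic show which effects depend on it; some results filed as inactive read as strong as hits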
YopH inh – YopH (Yersinia) phosphatase inhibition; inhibition, %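 (about 10 µM by stock and volumes)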; 140,000 compounds, 0.16% hits; fluorescence Ex485/Em525;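 active = inhibition of 50% or more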;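 note: controls were vehicle for no effect and minimum signal wells for full effect; inactives centre near -20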
Arbovirus anti repeat – recorded beside Arbovirus anti, whose call it bears; inhibition, %; measured here: 10K subset replicate screen; many hits read low in the repeat;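 first of two repeat runs on a subset; 0% = infected and 100% = uninfected wells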
An asterisk follows results filed as active; u = inconclusive; x = no result given.

SMILES	Mtb H37Rv	RecA intein inh	Arbovirus anti	Mtb bLac sens	YopH inh	others
C=CCNC(=O)c1onc(CSc2ccc(F)cc2)c1C(=O)NCCOC	-1%	1.2	-2	2	-24
CN(C)S(=O)(=O)c1ccc(C(=O)OCC(=O)NCc2ccccc2)cc1	-2%	-0.9	5	-6	x
O=C(Cn1c(=O)n(Cc2ccco2)c(=O)c2ccccc21)Nc1cccc(Cl)c1	-17%	x	15	9	-38
CCOc1ccc(N2CC(C(=O)NCCC3=CCCCC3)CC2=O)cc1 (stereo unspecified)	-7%	-2.1	2	-4	-2	Arbovirus anti repeat=2
COc1ccc(CCN(C)C(=O)c2ccc(S(=O)(=O)Nc3ccccc3F)cc2)cc1OC	x	0.1	x	-2	x
COc1cc(/C=N/N=C2\CC3CCC2(C)C3(C)C)ccc1O (stereo unspecified)	x	5.9	-1	-3	-8
O=C(NN1C(=O)c2ccccc2NC1c1ccco1)c1ccccc1 (stereo unspecified)	5%	-5.3	2	8	x
O=C(CCn1nc(-c2ccc(Cl)cc2)ccc1=O)NCCCN1CCCCCC1	0%	0.5	-11	-13	-10
C/C(=N/NC(=O)C1COc2ccccc2O1)c1ccc(Br)s1 (stereo unspecified)	-7%	10.0	x	-4	x
C/C(=N\NC(=S)NC(C)C)c1ccc(C(C)(C)C)cc1	25%	-1.8	-28	35	x
CC(C)N(CCCNC(=O)c1nn(C)c2c1CS(=O)(=O)c1ccccc1-2)Cc1ccccc1	x	-1.4	x	-1	x
C[N+](C)(CCOc1ccccc1)Cc1ccccc1 (tested in a mixture with another compound)	x	-7.7	x	-2	x
O=C(CC1NCCNC1=O)OCCCc1ccccc1 (stereo unspecified)	1%	-0.4	1	-2	-5	Arbovirus anti repeat=-1
CCNc1nc(NCC)n2c(SCC(=O)Nc3ccc(CC)cc3)nnc2n1	x	4.5	x	2	x
c1ccc2[nH]c(-c3cnco3)cc2c1	x	2.6	x	11	x
CCCCC(=O)Nc1ccc(NC(=O)c2ccc([N+](=O)[O-])cc2Cl)cc1OC	11%	-0.3	-4	3	-35
COc1ccc(N(CC(O)Cn2c(C)nc3ccccc32)S(=O)(=O)c2ccc(C)cc2)cc1 (stereo unspecified)	-6%	2.2	9	1	-17
Cc1ccc(C)n1CCN1CCN(C(=O)CSc2nc3ccccc3nc2N2CCOCC2)CC1	6%	1.0	-4	28	4
O=C(NCCC1=CCCCC1)C(=O)NCC(c1ccco1)N1CCN(c2ccc(F)cc2)CC1 (stereo unspecified)	-2%	0.8	-2	-4	-13
O=C1CCC(=O)c2oc3ccccc3c2N1	2%	-1.9	6	-5	-33
CCOC(=O)c1cnc(Cc2ccccc2)[nH]c1=O	x	2.3	x	5	x
COc1cc(CCC(=O)OCC(=O)Nc2nc(C)c(Cl)cc2Cl)cc(OC)c1OC	0%	0.5	-1	-6	-6
CN(C)C(=O)CSc1nc(SCC(=O)N(C)C)n(-c2ccccc2)n1	-4%	0.4	7	5	-23
COc1ccc(Cn2nnnc2C(c2ccc3ncccc3c2)N2CCN(C3CCCCC3)CC2)cc1 (stereo unspecified)	0%	-1.5	2	6	x
CC1=C(C(=O)Nc2ccccc2)C(c2ccncc2)C(C#N)=C(SCC(=O)NC2CC2)N1 (stereo unspecified)	-4%	-0.7	6	5	-37
COc1ccc(CCNS(=O)(=O)c2ccc(-n3cnnn3)cc2)cc1OC	x	0.3	x	-1	x
Cc1ccc(C(=O)c2ccc(N3CCN(C)CC3)c([N+](=O)[O-])c2)cc1	8%	-0.2	-27	-1	-10
C=CCNC(=O)C(=O)c1c(-c2ccccc2)[nH]c2ccccc12	-8%	2.2	-4	-6	-17
COc1ccc(C2(C#N)CCC(=O)N2c2ccccc2)cc1 (stereo unspecified)	3%	5.3	x	-12	x
CCOC(=O)C1=C(c2ccccc2)NC(SCC(=O)Nc2ccccc2C)=C(C#N)C1c1ccco1 (stereo unspecified)	7%	5.5	-26	3	-21
CC(C)C(=O)Nc1cc(C(F)(F)F)ccc1-n1ccnc1	5%	0.3	4	7	x
Cn1c(/C(C#N)=C(\O)c2cccc(F)c2)nc2ccccc21	x	-0.2	x	50	x
Cc1ccc(CN(C(=O)c2ccccc2[N+](=O)[O-])C2CCS(=O)(=O)C2)o1 (stereo unspecified)	x	2.5	x	-3	x
COc1ccc(N2C(=O)CC(C)(C)CC2=O)cc1OC	x	-0.3	x	-2	x
O=C(CSc1ccc(-c2ccccn2)nn1)Nc1ccc(F)cc1F	x	-0.2	x	55	x
COC(=O)Cn1nnc2c(cnn2-c2ccccc2)c1=O	-4%	-1.6	0	-3	x
CC(=O)Nc1ccc(S(=O)(=O)N2CCC(C(=O)NCCC(=O)Nc3ccccc3)CC2)cc1	x	1.0	x	3	x
N#Cc1cccc(NC(=O)CN2CCCCCC2)c1	x	0.6	x	2	x
CCN1CCN(S(=O)(=O)c2ccc(F)c(C(=O)Nc3c(F)cc(F)cc3Br)c2)CC1	x	0.8	x	0	x
COc1ccccc1/C=C/C1C(C(=O)OCC(C)C)=C(C)N=C2SCCC(=O)N21 (stereo unspecified)	-1%	0.1	-13	-5	x
C/C(=N\N1CCN(C)CC1)c1c(O)[nH]c(=O)[nH]c1=O	-3%	0.5	2	0	-25
O=C(CC1C(=O)NCCN1C(=O)c1ccc([N+](=O)[O-])cc1)Nc1ccc(F)cc1 (stereo unspecified)	x	0.4	x	8	x
COc1ccc(C(=O)NC2CCN(C(=O)Nc3ccccc3Cl)CC2)cc1	3%	6.6	20	-9	x
Cc1cc(C)cc(N(CC(=O)NC(C)(C)C)C(=O)CNC(=O)c2cccs2)c1	-6%	1.1	-1	-11	x
O=C(N/N=C/c1cc(Br)ccc1O)C(=O)Nc1ccccc1OC(F)(F)C(F)F	-1%	-1.5	-29	46	-13

Retrieved by structure from the list above, 5 records:
SMILES	Mtb H37Rv	RecA intein inh	Arbovirus anti	Mtb bLac sens	YopH inh	others
COc1ccc(N2C(=O)CC(C)(C)CC2=O)cc1OC	x	-0.3	x	-2	x
O=C(CC1C(=O)NCCN1C(=O)c1ccc([N+](=O)[O-])cc1)Nc1ccc(F)cc1 (stereo unspecified)	x	0.4	x	8	x
N#Cc1cccc(NC(=O)CN2CCCCCC2)c1	x	0.6	x	2	x
CCN1CCN(S(=O)(=O)c2ccc(F)c(C(=O)Nc3c(F)cc(F)cc3Br)c2)CC1	x	0.8	x	0	x
COC(=O)Cn1nnc2c(cnn2-c2ccccc2)c1=O	-4%	-1.6	0	-3	x

Other structures:
SMILES	Mtb H37Rv	RecA intein inh	Arbovirus anti	Mtb bLac sens	YopH inh	others
Cc1ccc(/C=C/C(=O)Nc2ccc(Oc3ccccc3)cc2)o1	46%	8.1	-5	-3	-4
CCCS(=O)(=O)C(=C(Nc1ccc(OC)cc1)Nc1ccc(OC)cc1)S(=O)(=O)CCC	-8%	1.0	3	8	-14
Cc1ccc(/C=C/S(=O)(=O)NCc2ccc(F)cc2)cc1	6%	2.0	-2	-2	x
Cc1occc1-c1nnc(SCC(=O)N2CCN(c3ccc(F)cc3)CC2)n1C	5%	1.3	1	-6	-4
CCC(C(=O)NC1CC1)n1nc(C)c2c(C)n(-c3ccc(C)cc3)nc2c1=O (stereo unspecified)	x	-2.3	x	0	x
COc1cc(C(=O)NCCc2ccc(S(=O)(=O)N3CCCC3)cc2)cc(OC)c1OC	-6%	0.8	3	-4	x
CCOC1(OCC)C(c2ccc(N)cc2)C(C#N)(C#N)C1(OCC)OCC (stereo unspecified)	-7%	x	29	-6	-38
CC(C)(C)Nc1nc2cc([N+](=O)[O-])ccc2o1	-10%	0.7	x	-9	x
CSc1cccc(NC(=O)CN2C(=O)c3ccccc3S2(=O)=O)c1	-5%	0.9	11	-4	-6	Arbovirus anti repeat=1
Cc1nc2c(ccc3nc(NC(=O)Cc4cccc5ccccc45)sc32)s1	x	0.4	-31	6	-27
COc1ccccc1CCNC(C)CCc1ccc(O)cc1 (stereo unspecified)	x	3.1	x	-1	x
COc1ccc(-c2c(C#N)c(N)nc3c2CCCCCC3)cc1OC	-15%	3.7	-8	-5	-25
COc1ccccc1NC(C)C(=O)N/N=C/c1ccccc1OCc1cccc(Br)c1 (stereo unspecified)	2%	19	-11	0	-21
COC(=O)c1ccc(Nc2cc(C)nc3ccc(C)cc23)cc1	-6%	-0.2	x	-2	x
N/C(=N\OC(=O)CCC1CCCC1)c1ccccc1	0%	1.5	-2	-4	x
O=C1C(Cc2ccccc2)NC(=S)N1Cc1ccccc1 (stereo unspecified)	-8%	1.9	-3	-1	x
O=C(Nc1ccc(F)cc1)OCCN1CCN(Cc2ccccc2)CCC1=O	-11%	0.5	8	-7	-4
CCCN(CCC)S(=O)(=O)c1ccc(C(=O)NNc2nc(-c3ccccc3)c3cc(Br)ccc3n2)cc1	-5%	0.5	-6	-15	-27
CC(C)C(=O)Nc1nnc(S(=O)(=O)N(C)c2ccc(Cl)cc2)s1	x	-0.4	x	4	x
O=c1[nH]c(Cc2ccccn2)nc2scc(-c3ccccc3Cl)c12	-3%	-17	3	-4	x
CCc1cccc(NC(=O)CCCCCC2NC(=O)NC2C)c1 (stereo unspecified)	-2%	-2.3	-1	-21	x
CC(C)C(NC(=O)CSCc1ccc([N+](=O)[O-])cc1)C(C)C	-8%	-4.1	-2	3	-19
CCOc1ccc(C2/C(=C(/O)c3ccc(S(=O)(=O)N4CCCCC4)cc3)C(=O)C(=O)N2CCCOC)cc1OC (stereo unspecified)	x	0.4	x	-12	x
COc1ccc(N(C)C(=O)c2oc(=O)c3ccccc3c2-c2ccccc2)c(OC)c1	5%	9.6	x	-12	x
Cc1nc2ccc(N=NN(C)C)cc2[nH]1	-1%	-0.3	x	1	x
CCOC(=O)N1CCN(C(=O)CCCN2C(=O)CSc3nc(C)cc(C)c32)CC1	1%	0.4	6	-7	-22
O=C(Nc1nc2ccccc2[nH]1)c1ccccc1O	x	0.5	x	18	x
CC(=O)c1c(C)[nH]c(C(=O)CSc2nnc(C)s2)c1C	4%	-0.9	6	-6	x
COC(=O)c1ccc(NC(=O)c2cc3c(CO)cnc(C)c3oc2=Nc2cccc(C(N)=O)c2)cc1	x	0.4	x	4	x
COc1ccc(OC)c(NC(=O)CSc2nnc(CNc3ccc(C)cc3C)o2)c1	3%	1.2	5	-9	-41
COc1cc(OC)nc(-n2ncc(Br)c(Br)c2=O)n1	u	x	-35	98	-20
CC(C)c1ccc(O)c(NC(=O)c2cccnc2)c1	0%	-1.2	0	-4	-10
Cc1ccc(C)c(NC(=O)CSc2nnc(Cc3cccn3C)n2-c2ccc(F)cc2)c1	-4%	0.4	1	3	-7
Cc1ccccc1Cn1c2ccccc2c2cnn(CC(=O)NCCCN3CCOCC3)c(=O)c21	x	-1.0	x	-2	x
COc1ccccc1C1NC(=O)NC(C)=C1C(=O)OC1CCC(C)CC1 (stereo unspecified)	x	0.5	x	-1	x
CCCCN(C)C(=O)C1CCN(CCCc2ccccc2)CC1	x	1.5	8	-7	-29
Cc1ccc(-c2nc3ccccc3n3nnnc23)cc1	4%	-0.7	-12	x	12
CN(C)c1ccc(NC(=O)COC(=O)CCC(=O)c2ccc(F)cc2)cc1	-4%	-0.9	-2	-12	-15
CC(Sc1nnc(Nc2ccccc2)s1)C(=O)NC1CCCc2ccccc21 (stereo unspecified)	1%	0.4	-6	-4	-24

Compounds from the list above that contain a tert-butyl group (3):
SMILES	Mtb H37Rv	RecA intein inh	Arbovirus anti	Mtb bLac sens	YopH inh	others
C/C(=N\NC(=S)NC(C)C)c1ccc(C(C)(C)C)cc1	25%	-1.8	-28	35	x
Cc1cc(C)cc(N(CC(=O)NC(C)(C)C)C(=O)CNC(=O)c2cccs2)c1	-6%	1.1	-1	-11	x
CC(C)(C)Nc1nc2cc([N+](=O)[O-])ccc2o1	-10%	0.7	x	-9	x

5 compounds from above, sorted by heavy-atom count, high to low.
SMILES	Mtb H37Rv	RecA intein inh	Arbovirus anti	Mtb bLac sens	YopH inh	others
Cc1ccccc1Cn1c2ccccc2c2cnn(CC(=O)NCCCN3CCOCC3)c(=O)c21	x	-1.0	x	-2	x
Cc1ccc(C)c(NC(=O)CSc2nnc(Cc3cccn3C)n2-c2ccc(F)cc2)c1	-4%	0.4	1	3	-7
CN(C)c1ccc(NC(=O)COC(=O)CCC(=O)c2ccc(F)cc2)cc1	-4%	-0.9	-2	-12	-15
CCCCN(C)C(=O)C1CCN(CCCc2ccccc2)CC1	x	1.5	8	-7	-29
COc1cc(OC)nc(-n2ncc(Br)c(Br)c2=O)n1	u	x	-35	98	-20

Not all compounds are listed; rates above refer to the full screens.
